Rango complex inh = inhibitors of Rango-importin beta complex formation | Rango CFP/YFP FRET sensor + importin beta, 45 min | Potency, µM (titrated, usually from 92.2 µM), for the others: at the top dose inhibition of complex formation | actives 0.031% (n = 340,000); active = rising FRET ratio curve, often small or poorly fitted; inconclusive = mostly compound fluorescence or quenching in the first reads; inactive = flat curves in all reads;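 note: potency is the fitted concentration of half-maximal effect; 0% = DMSO wells and 100% = buffer wells lacking importin beta; nearly all actives have a fitted effect of over 15% in size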
Target sequence (Q14974 whole entry, looked up): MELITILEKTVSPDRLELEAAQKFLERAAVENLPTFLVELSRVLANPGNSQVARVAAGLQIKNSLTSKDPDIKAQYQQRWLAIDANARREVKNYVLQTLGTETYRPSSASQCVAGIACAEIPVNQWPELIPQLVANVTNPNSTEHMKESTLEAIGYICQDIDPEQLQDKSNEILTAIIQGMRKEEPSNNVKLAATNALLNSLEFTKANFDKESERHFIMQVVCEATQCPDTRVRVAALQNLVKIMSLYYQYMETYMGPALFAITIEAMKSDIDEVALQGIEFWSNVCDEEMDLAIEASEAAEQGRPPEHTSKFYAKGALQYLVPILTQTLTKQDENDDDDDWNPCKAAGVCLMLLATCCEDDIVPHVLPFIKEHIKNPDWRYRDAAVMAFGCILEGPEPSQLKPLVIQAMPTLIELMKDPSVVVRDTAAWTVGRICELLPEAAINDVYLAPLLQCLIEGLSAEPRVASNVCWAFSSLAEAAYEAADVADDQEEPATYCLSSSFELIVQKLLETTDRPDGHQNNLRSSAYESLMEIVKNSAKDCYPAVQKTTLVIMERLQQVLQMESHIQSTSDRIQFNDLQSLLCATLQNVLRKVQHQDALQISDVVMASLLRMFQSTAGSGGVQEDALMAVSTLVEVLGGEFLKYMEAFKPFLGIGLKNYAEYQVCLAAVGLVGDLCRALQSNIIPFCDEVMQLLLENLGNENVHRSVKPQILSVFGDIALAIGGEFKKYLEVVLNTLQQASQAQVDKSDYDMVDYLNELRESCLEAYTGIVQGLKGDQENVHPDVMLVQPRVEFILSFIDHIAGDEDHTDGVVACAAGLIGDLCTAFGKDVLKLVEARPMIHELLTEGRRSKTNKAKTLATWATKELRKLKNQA
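FRET biosensor (snurportin 1 IBB flanked by EYFP and cerulean), 50 nM, with compound 5 min, then 0.125 microM importin beta in PBS, 1 mM DTT, 0.02% Tween-20, 0.1% BSA. CFP/YFP ratio read after 45 min at room temperature; pre-read flags interference.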
GLA inh pH 4.5 = inhibitors of human alpha-galactosidase A at pH 4.5; P06280; purified enzyme, 4-MU-alpha-Gal fluorescence, pH 4.5; activity change, negative = inhibition, % at 105 µM; 230,000 tested, under 10 active; inconclusive = small, poorly fitted or top-dose-only inhibition, or a rising curve; inactive = flat fitted curve, though single readings scatter; no compound was filed as active;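 note: 0% = full activity with enzyme and -100% = basal without enzyme; dose as in the result columns while the protocol names 77 µM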
miR-21 reporter = miR-21 reporter, rising signal. HeLa miR-21 FLuc reporter, luciferase, 48 h. Potency, µM (series often up to 38.3 µM), without a hit: at the top dose reporter change, positive = more light. 340,000 tested, under 10 active; active = well fitted rising curve with a large enough effect; inconclusive = small, poorly fitted or top-dose-only effect; inactive = no such curve, though single readings can be large or run the other way;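 note: % of control where 0% means no effect; miR-21 action dims this reporter so a rising signal means less miR-21 action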
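Using DMEM plus 10% FBS, HeLa miR-21-FLuc cells are incubated with test compounds (final up to about 40uM) for 48 hours; firefly luciferase signal is then imaged following reagent-mediated lysis.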
Rango release inh = inhibition of RanGTP-driven Rango-importin beta dissociation. O95149+P62826. Biochemical FRET Rango-importin beta, RanGTP-induced dissociation. Potency, µM (series often up to 46.1 µM), inactives show at the top dose activity change, negative = inhibition. actives 0.071% (n = 340,000). AID 540253; active means falling FRET ratio curve, often poorly fitted, with flat reads before Ran was added; inconclusive means other falling curves, or compound fluorescence or quenching; inactive means flat or rising ratio curve;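 note: potency is the fitted concentration of half-maximal effect; % of control where 0% means no effect; nearly all actives have a fitted effect of over 45% in size; -100% = wells without RanGTP and RCC1; the record marks most hits as doubtful in a second field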
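Compounds preincubate 5 min with complex of recombinant Rango and importin beta in PBS with 1 mM DTT. Ran (0.6 uM) loaded with 2 mM GTP plus 0.2 uM RCC1 starts dissociation; FRET is recorded 45 min later.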
The depositor's hits bear a star; ? = inconclusive; . = no result given; & = joins results of further samples; [ ] = another dose, or the depositor's remark. Not all compounds are listed; rates above refer to the full screens.

Values run as follows: Rango complex inh | GLA inh pH 4.5 | miR-21 reporter | Rango release inh
- COc1ccccc1CNC(=O)CCn1c(=O)[nH]c2ccsc2c1=O
    1.4% | 5 | -4% | 11%
- CC1CC(=O)Nc2cc([N+](=O)[O-])ccc2N1 (configuration not stated)
    -2.9% | -18 | 3% | -4%
- O=C(c1cc(S(=O)(=O)N2CCOCC2)c(Cl)cc1Cl)N1CCCC1
    -2.0% | . | . | 17%
- CC(C)CNC(=O)CC(=O)NN=C1CCCC1
    -1.9% | -2 | -1% | ?
- Cc1ccc(Nc2cc(C)nc3nc(C)nn23)cc1
    3.5% | 5 | -7% | 27%
- COc1ccc(Br)cc1CN1CCN(C(=O)c2ccco2)CC1
    -0.2% | . | -7% | 9%
- CCC(C)(C)n1nnnc1C(c1cccc(C#N)c1)N1CCN(c2cccc(C)c2C)CC1 (configuration not stated)
    -0.1% | 4 | 0% | ?
- Cc1cccc(C(C(=O)NC2CCCC2)N(C(=O)c2csnn2)C2CC2)c1 (configuration not stated)
    -2.4% | . | 0% | 1%
- CC1(C)C/C(=N\O)C(C(O)c2cccc([N+](=O)[O-])c2)C(C)(C)N1 (configuration not stated)
    -2.3% | 2 | 3% | 7%
- O=c1c2ccccc2nnn1CSc1nc2sc3c(c2c(=O)n1CC1CCCO1)CCC3 (configuration not stated)
    4.9% | -2 | 0% | -3%
- CCCN(C(=O)CSc1nnnn1C)c1c(N)n(Cc2ccccc2)c(=O)[nH]c1=O
    1.8% | 7 | 0% | 10%
- COc1ccc(S(=O)(=O)N2CCN(CC(=O)Nc3cc(Cl)ccc3Cl)CC2)cc1
    0.1% | . | . | 9%
- COc1ccc(SC[C@H](C)CN2CC[C@H](NC(=O)OCc3ccccc3)CCC2=O)cc1
    -6.4% | . | . | -1%
- O=c1[nH]c(=S)n(-c2ccc(Br)cc2)c2ncccc12
    -0.2% | . | . | -2%
- Cc1ccc(NC(=O)c2ccc(Cl)c(S(=O)(=O)Nc3c(C)n(C)n(-c4ccccc4)c3=O)c2)cc1Cl
    1.4% | . | . | 8%
- COc1cccc(NC(=O)CCC2CCN(C(=O)c3cncs3)CC2)c1
    -3.3% | . | 3% | 4%
- COc1cc(NC(=O)c2cc(Cl)ccc2Cl)ccc1-c1cc2ccccc2oc1=O
    0.0% | 5 | -4% | -8%
- CC1CCCN(CCOCCOc2ccccc2-c2ccccc2)C1 (configuration not stated)
    0.5% | 2 | 11% | 1%
- Cn1nccc1C(=O)NC1CCCc2c1cnn2-c1ccccc1F (configuration not stated)
    -3.4% | . | 16% | -11%
- Cc1cc(C(F)(F)F)c2sc(N)nc2n1
    -1.9% | -15 | -2% | -20%
- O=C(NC1CCCC1)C(c1ccccc1)N(C(=O)c1csnn1)C1CCCC1 (configuration not stated)
    -1.1% | . | 2% | 7%
- COc1ccc2c(c1)sc(N)[n+]2Cc1cc(C)cc2cccnc12
    ? | -14 | ? | ?
- Cc1cc(C(=O)NC(Cc2ccccc2)C(=O)O)c(C)o1 (configuration not stated)
    1.2% | 6 | 2% | 16%
- Cc1cccc(NC(=O)CSc2nnc(C)c(C)n2)c1
    -2.7% | . | 2% | 8%
- Cn1cc(CN2CCC(n3nccc3NC(=O)c3ccccc3Cl)CC2)cn1
    -0.5% | . | -1% | -7%
- CCN1C(=O)[C@H]2[C@@H](c3ccc(SC4CCCCC4)cc3)N3CCCC[C@@]3(C(=O)OC)[C@H]2C1=O
    0.0% | . | . | -11%
- COc1ccccc1CCNC(=O)C(=O)NCC1CCCN1S(=O)(=O)c1ccccc1 (configuration not stated)
    -0.5% | . | . | 1%
- C1CCc2c(nc3nnnn3c2NCC2CC2)C1
    -0.2% | 3 | -7% | 6%
- COc1ccc(Cc2nnc(SCC(=O)Nc3ncc(C)s3)o2)cc1
    -3.5% | -1 | -8% | -22%
- Cc1ccccc1S(=O)(=O)Cc1ccc(C(=O)NCc2ccc(F)cc2)o1
    5.1% | -5 | 4% | 0%
- Cc1ccc(OCC(=O)Oc2ccc(C)c(C)c2)cc1
    3.2% | . | 0% | 0%
- CCCCC(=O)NC(=S)Nc1ccc(NC(=O)C(C)C)c(OC)c1
    -0.2% | -3 | 0% | 12%
- OC1CCCCC1Sc1nc2ccccc2s1 (configuration not stated)
    1.0% | 2 | -48% | 10%
- NC1=NC(=O)/C(=C\c2ccc(-c3ccc(Cl)cc3)o2)S1
    ? | . | -6% | ?
- [N-]=[N+]=NC[C@H](Cc1ccccc1)N1CC[C@@H](NC(=O)OCc2ccccc2)CCC1=O
    0.7% | . | 1% | 1%
- Cc1ccc(NC(=O)CCNS(=O)(=O)c2cccc3nsnc23)cc1
    -2.3% | 0 | 0%&1% | ?
- O=C1NC[C@H](c2ccccc2)N(CCc2cccc(F)c2)C1=O
    0.2% | 4 | -1% | 3%
- Cc1ccc(C)c(Oc2coc3cc(O)ccc3c2=O)c1
    -3.3% | . | -12% | -8%
- Cc1cccnc1NC(=S)NC(=O)/C=C/c1ccccc1
    0.2% | 4 | -47% | -9%
- CC(=O)c1cccc(NC(=O)c2cc(-c3ccco3)nc3ccccc23)c1
    -4.7% | . | 17% | 11%
- CCC(C)(CC(=O)Nc1nccs1)c1ccccc1 (configuration not stated)
    1.4% | . | 4% | -2%
- COc1ccc(C2C(C#N)C(C#N)N3CCCN23)cc1 (configuration not stated)
    -4.8% | -6 | -3% | 3%
- Cn1cc(CNC(=O)/C=C/c2ccc(Cl)cc2)cn1
    -0.9% | 7 | -27% | -1%
- COc1ccc(/C=N/Nc2nonc2N)cc1
    -0.5% | 3 | -42% | -8%
- CCCN(C(=O)c1ccc(S(=O)(=O)N2CCCC2)cc1)C1CCS(=O)(=O)C1 (configuration not stated)
    -5.2% | . | . | ?
- COc1ccccc1NS(=O)(=O)c1ccc(C)c(C(=O)NC2=NCCS2)c1
    -2.0% | . | . | 31%
- Cc1ccc(SCC(=O)NCc2ccccc2)cc1
    0.0% | . | -19% | 8%
- O=C(CCC(=O)N1CCN(S(=O)(=O)c2ccc(Cl)cc2)CC1)Nc1ccc(Cl)cc1Cl
    7.5% | -3 | 11% | -4%
- COc1ccc(-c2nc(N/N=C(\C)c3ccc(O)cc3)c3ccccc3n2)cc1
    -0.4% | -3 | -16% | -8%
- COc1ccccc1C(=O)Nc1cccc2c1CCCC2
    ? | . | -10% | 5%

Later entries:
Values run as follows: Rango complex inh | GLA inh pH 4.5 | miR-21 reporter | Rango release inh
- O=C(CCCn1c(=O)[nH]c2cc(Cl)ccc2c1=O)N1CCN(c2ccc([N+](=O)[O-])cc2)CC1
    0.7% | 3 | -1% | -10%
- COc1ccc(C2Nc3ccccc3C(=O)N2Cc2ccco2)cc1COc1ccccc1F (configuration not stated)
    -0.4% | -4 | 10% | -15%
- Cc1ccc(Oc2nnc(-c3ccccc3)cc2C#N)cc1
    2.9% | 3 | -5% | -18%
- CC(NC(=O)c1ccccc1Cl)C1COc2ccccc2O1 (configuration not stated)
    ? | -23 | -36% | 19%
- CCN(CC(=O)Nc1cccc(S(=O)(=O)N(C)c2ccccc2)c1)Cc1ccccc1
    -2.3% | . | . | ?
- Cn1c(O)c(N=NC(=S)Nc2ccccc2F)c2cc(S(=O)(=O)N3CCOCC3)ccc21
    0.7% | -8[21.1 µM] | 2% | -1%
- COc1ccc(C=NCCCN2CCOCC2)cc1
    0.2% | 4 | -6% | -14%
- O=C(NCCOc1nc(N2CCOCC2)nc(N2CCOCC2)n1)Nc1ccccc1
    -1.8% | 5 | -2% | -11%
- O=C1C(=O)N(CCCn2ccnc2)C(c2cccnc2)/C1=C(/O)c1ccc(F)cc1 (configuration not stated)
    -1.1% | -3 | 1% | 24%
- Cc1cc(C)n(-c2nc3ccccc3nc2N2CCCC2)n1
    ? | 0 | -1% | ?

Three of the compounds above, field by field.
Compound: COc1ccccc1NS(=O)(=O)c1ccc(C)c(C(=O)NC2=NCCS2)c1
  Rango complex inh: -2.0%
  GLA inh pH 4.5: .
  miR-21 reporter: .
  Rango release inh: 31%

Compound: Cc1ccc(SCC(=O)NCc2ccccc2)cc1
  Rango complex inh: 0.0%
  GLA inh pH 4.5: .
  miR-21 reporter: -19%
  Rango release inh: 8%

Compound: O=C(CCC(=O)N1CCN(S(=O)(=O)c2ccc(Cl)cc2)CC1)Nc1ccc(Cl)cc1Cl
  Rango complex inh: 7.5%
  GLA inh pH 4.5: -3
  miR-21 reporter: 11%
  Rango release inh: -4%

Remaining list, next part:
Values run as follows: Rango complex inh | GLA inh pH 4.5 | miR-21 reporter | Rango release inh
- NC(=O)c1ccc(Oc2ccc3c(c2)CCC3)c([N+](=O)[O-])c1
    -0.1% | . | 4% | 1%
- CN(c1ccc(C(=O)Nc2cccnc2)cc1)S(C)(=O)=O
    0.0% | 4 | -3% | -8%
- O=C(NC1CCCCC1)c1cccc2c1C(=O)c1ccc(N3CCC(Cc4ccccc4)CC3)cc1S2(=O)=O
    ? | . | . | ?
- CC(=O)Nc1ccc(Oc2nc(-c3cccnc3)nc3sc4c(c23)CCCC4)cc1
    0.9% | . | . | -1%
- CCc1nn2c(=O)cc(COc3cccc(NC(=O)c4ccco4)c3)nc2s1
    0.7% | . | -5% | 1%
- CCc1nonc1NC(=O)c1oc2cc(C)c(Cl)cc2c1C
    0.8% | . | -7%&-14% | 11%
- Cc1nn(C)c2c(=O)c(=O)c2n(C)[nH]1
    3.1% | 2 | 2% | 5%
- O=C1CC(N2CCOCC2)C(=O)N1c1ccccc1Cl (configuration not stated)
    -3.4% | 0 | 0% | 7%
- COc1cccc(/C=N/NC(=O)CN(C)S(=O)(=O)c2ccccc2)c1OC
    2.5% | . | . | 5%
- CCOC(=O)c1c(C)[nH]c(C)c1C(=O)COC(=O)/C=C/c1cccc(C(F)(F)F)c1
    -3.1% | -30 | -3% | 3%
- CCOC(=O)NN1C(=O)c2ccccc2NC1(C)C
    -2.7% | 11 | 3% | 1%
- CSC1=NCCN1S(=O)(=O)c1ccc(C)cc1
    -0.9% | 0 | -1% | 9%
- CCC(=O)N=c1sc2c(OC)ccc(OC)c2n1C
    0.5% | . | . | -5%
- Cc1cccc(N2CC(C(=O)Nc3ccc(N4CCOCC4)cc3)CC2=O)c1C (configuration not stated)
    -0.8% | . | . | -1%
- CCOC(=O)C1=C(C)NC(SC)=NC1c1ccc(OC)cc1 (configuration not stated)
    0.3% | 3 | -9% | -12%
- CCCC1CC(C)(C(=O)CSc2n[nH]c(-c3ccccc3)n2)OC1=O (configuration not stated)
    2.2% | 4 | -11% | -1%
- O=C1NC(c2cccc([N+](=O)[O-])c2)=CCN1c1ccccc1O
    0.1% | -8&2&5 | -4% | -3%
- COC(=O)Nc1ncc(CN2CCCCC2)s1
    -0.4% | -13 | 1% | 1%
- O=C(c1ccc2snnc2c1)N1CCN(c2ccccc2)CC1
    -1.1% | -1 | 2% | -9%
- Cc1cc2nc(SCCN3CCCC3)[nH]c2cc1C
    -0.5% | 1 | -30% | 8%
- Cc1occc1C(=O)Nc1cccc(C(F)(F)F)c1
    -2.5% | -4 | -18% | -8%
- CCOC(=O)C(O)C1CCc2c([nH]c3ccc(C)cc23)C1=O (configuration not stated)
    0.5% | -2 | -20% | 3%
- O=c1cc(-c2ccccc2)nc2nc(SCc3ccccc3)[nH]n12
    0.7% | 0 | -1% | -4%
- CN(C)S(=O)(=O)c1ccc(N2CCCC2)c(C(=O)NCC2COc3ccccc3O2)c1 (configuration not stated)
    -0.9% | . | . | 13%
- CC(C)C[C@@H](CO)N(Cc1ccccc1)S(=O)(=O)N(Cc1ccccc1)[C@@H](CO)CC(C)C
    ? | . | . | -13%
- CCn1c(CC(=O)Nc2ccccc2C)nnc1SCC(=O)Nc1nncs1
    4.2% | . | 9% | 0%
- c1ccc(-c2nc(C3CCCCC3)c3sccc3n2)cc1
    0.0% | . | . | 8%
- O=C1NCCN1C(=O)C12CC3CC(CC(C3)C1)C2
    0.4% | -8 | -3% | 1%
- O=C(N/C(=C/c1ccccc1Cl)C(=O)N1CCCC1)c1ccccc1
    0.8% | -2 | -4% | 2%
- COc1c(O)cnn(-c2ccccc2)c1=O
    0.5% | -3 | 1% | 13%
